Vaccinia mCherry – qHTS for Stage-Specific Inhibitors of Vaccinia Orthopoxvirus: mCherry Reporter Primary qHTS; Vaccinia virus mCherry reporter infection, fluorescence; about a quarter of the inactives have no number; Potency, µM (highest dose often 36.5 µM), for inactives: top-dose activity change, negative = inhibition, actives largely listed as inhibitors; hit rate 0.63% among 310,000; active = well fitted inhibition curve with a large enough effect; inconclusive = small, poorly fitted or top-dose-only effect; inactive = no such curve, though single readings can be large or run the other way; tested in A549 cells; further: nearly all actives have a fitted effect of over 35% in size; inactives centre near -10
VACV Venus inh – qHTS for Stage-Specific Inhibitors of Vaccinia Orthopoxvirus: Venus Reporter Primary qHTS | Vaccinia virus Venus reporter expression, fluorescence | Potency, µM (titrated, usually from 36.5 µM), for inactives: top-dose activity change, negative = inhibition, hits mostly inhibitors | hit rate 0.46% among 330,000 | AID 720580, 2013; active means well fitted inhibition curve with a large enough effect; inconclusive means small, poorly fitted or top-dose-only effect; inactive means no such curve, though single readings can be large or run the other way; tested in A549 cells; further: nearly all actives have a fitted effect of over 30% in size; inactives centre near -10
The depositor's hits bear a star; i = inactive; u = inconclusive; x = no result given; & = joins results of further samples; [ ] = another dose, or the depositor's remark. On the % scale 0 is the no-effect control and ±100 the full control effect; potency means the concentration at half of the fitted maximal effect. Hits appear at their usual frequency; about 0.82% have a hit in one of these screens.

SMILES	Vaccinia mCherry	VACV Venus inh
O=C(NCCN1CCOCC1)c1ccc(Cl)c(S(=O)(=O)N2CCCCCC2)c1	x	-24%
c1ccc(-c2cnn3c(-c4ccccc4)c(-c4ccccc4)nc3n2)cc1	-6%	3%
Cc1ccc(O)c(N=Cc2ccc(C)s2)c1	i	-7%
COc1ccc(NC(=O)C2=CC(c3ccc(OC)c(OC)c3)=NS(=O)(=O)N2C)cc1	-10%	u
CC(=O)N(C)c1ccc(NC(=O)Cc2cccs2)cc1	-10%	-12%
CC/C(=C\C(=O)c1ccncc1)Nc1ccc(O)cc1	x	-28%
O=C(C1CC(=O)N(c2ccc(F)cc2)C1)N1CCC(c2nc3ccccc3[nH]2)CC1 (stereo unspecified)	-2%	-13%
Cc1c(Cl)cccc1NC(=O)Cn1nc(C(F)(F)F)c2c1CCC2	-8%	-8%
CC1(C(=O)NS(=O)(=O)c2cccc(C#N)c2)CCN1C(=O)c1ccccc1 (stereo unspecified)	60%[activator]	7%
COc1ccc(C(=O)NC(c2ccc(Cl)cc2)c2cc(Cl)c3cccnc3c2O)cc1 (stereo unspecified)	10µM*	u
CC1CCN(S(=O)(=O)c2ccc3c(c2)N(CC(=O)NCCN(C)C)C(=O)CO3)CC1	-6%	7%
Cc1ccc2cc3cc(C(=O)N4CCN(c5ccc(Cl)cc5)CC4)oc3nc2c1	-5%	2%
COc1ccc(/C=C/CN2CCCC(CCC(=O)NCc3ccc(F)c(F)c3)C2)cc1 (stereo unspecified)	-18%	-16%
CCn1c(CSc2nnc3ccccn23)nc2cc(C(=O)O)ccc21	8%	35%[activator]
COC(=O)C1SCCN1S(=O)(=O)c1ccc(Cl)cc1 (stereo unspecified)	-10%	-4%
COc1ccccc1Cc1c(-c2cccc(Cl)c2)nc2ccc(C)cn12	12%	-10%
Nc1cc(C(F)(F)F)cc2c1SCC(=O)N2	-14%	-12%
CCn1c(=O)cc(SCC(=O)NCc2ccc(Cl)cc2)c2ccccc21	-25%	-26%
Clc1ccc(-c2cnn3c(-c4ccncc4)ccnc23)cc1	i	-11%
N=C(c1cccc([N+](=O)[O-])c1)N1CCCCCC1	-1%	-5%
COc1ccc(NC(=O)Cn2c(=O)n(Cc3ccc(C(=O)NCc4ccccc4Cl)cc3)c(=O)c3ccccc32)cc1	-5%	1%
Cc1ccc(C2c3[nH]c4ccccc4c3CCN2C(=O)c2cccc(C)c2)cc1 (stereo unspecified)	u	-23%
O=C(NC(=S)Nc1cccc2[nH]ncc12)c1ccccc1	i	-7%
CC(Sc1nnc(CNc2cccc3ccccc23)n1-c1ccccc1)C(=O)N/N=C/c1ccco1 (stereo unspecified)	-10%	2%
NC(=O)CSc1oc(-c2ccco2)nc1S(=O)(=O)c1ccc(F)cc1	-11%	7%
Carrying on.
SMILES	Vaccinia mCherry	VACV Venus inh
Cc1nc2n(n1)C(c1ccccc1)C1=C(CC(c3ccco3)CC1=O)N2 (stereo unspecified)	-18%	-16%
Cc1ccc(N2CCN(/N=C/C(Cl)=C/c3ccccc3)CC2)cc1	i	-11%
CC1(c2cnc(Nc3ccccc3)s2)CCC(=O)O1 (stereo unspecified)	i	-2%
CC(Oc1ccc(F)cc1)C(=O)Nc1cc(S(=O)(=O)N2CCOCC2)ccc1N1CCCCC1 (stereo unspecified)	u	-9%
Cc1c(-c2cccc(NC(=O)C(C)(C)C)c2)nc2ncccn12	-4%	-4%
CNc1ncnc2ccc(-c3ccccc3OC)cc12	-6%	-17%
Cc1ccc(-n2cc(CNC(C)Cn3cncn3)c(-c3ccc(F)cc3)n2)cc1 (stereo unspecified)	-20%	u
N/C(=N\OS(=O)(=O)c1ccc(Cl)cc1)c1cccnc1	-4%	-1%
CCCS(=O)(=O)n1nc(-c2ccc(Br)cc2)cc1N	-4%	-22%
CC(C)CNc1ncnc2c1ncn2[C@H]1CN(CCc2ccccc2)C[C@@H](CO)O1	-29%	-18%
Cc1ccc(C)c(Oc2nnnn2-c2ccccc2)c1	-13%	-6%
CCOc1cc(C#N)c(NC(=O)Cn2nnc(-c3ccc(C)cc3)n2)cc1OCC	-8%	-16%
CC(C)(C)C1CCc2c(sc3nc(-c4cc5ccccc5oc4=O)[nH]c(=O)c23)C1 (stereo unspecified)	-9%	48%[activator]
CCCOC(=O)CC1C(=O)NCCN1Cc1ccccc1C (stereo unspecified)	-11%	-6%
CC1(c2nnc(Cc3ccccc3)o2)CC(c2ccc(F)cc2)=NO1 (stereo unspecified)	-16%	2%
O=C(CSc1nc(=O)n(Cc2cccnc2)c2c1CCC2)Nc1ccc(F)cc1F	-20%	1%
CC1CCN(CCCNC(=O)c2ccc3c(=O)n(Cc4ccc(Cl)cc4)c(=S)[nH]c3c2)CC1	i	-5%
CCN(CC(=O)Nc1c(F)cccc1F)C(=O)c1ccc(S(=O)(=O)N2CCCCCC2)cc1	-12%	-6%
[O-][n+]1ccccc1SC/C=C/c1ccccc1	i	3%
Cc1c(-c2nn(C)c(=O)c3ccccc23)oc2ccc(F)cc2c1=O	x	-3%
Oc1c(I)cc(Cl)c2cccnc12	-29%&-23%	-17%&-8%
COc1ccc(CNC(=O)CCc2c(C)c3cc4c(C)c(C)oc4cc3oc2=O)cc1	u	-27%
COc1ccc(NC(=O)c2cc(C3CCCCN3C(=O)CCc3ccccc3)on2)c(C)c1 (stereo unspecified)	u	-19%
CN1CCc2c(sc3c2c(=O)n(-c2ccccc2)c2nnc(SCc4ccccc4)n32)C1	i	-22%
CC(C)(C)OC(=O)CNC(=O)c1[nH]cnc1C(=O)N[C@@H](Cc1ccccc1)C(=O)OC(C)(C)C	-6%	-20%
Next results.
SMILES	Vaccinia mCherry	VACV Venus inh
CN(C)c1ccc(C(CNC(=O)c2ccccc2)N2CCc3ccccc32)cc1 (stereo unspecified)	-8%	-10%
Cc1ccc(NC(=O)C2CCN(c3nc4ccccc4nc3C(F)(F)F)CC2)cc1C	10%	2%
CCOc1ccc2ccccc2c1C1NC(=S)N(C)C(C)=C1C(=O)OC (stereo unspecified)	-7%	-1%
O=S(=O)(O/N=C1\CCCc2ccccc21)c1ccc(Cl)cc1	4%	-1%
CCOc1ccccc1NC(=O)CCc1nc(-c2cccc(C)c2)no1	-4%[7.34 µM]	2%[7.34 µM]
COc1ccc(-c2nn3c(=O)cc(CN4CCN(C(=O)Nc5cc(C)ccc5C)CC4)nc3s2)cc1	-21%	-18%
COc1ccccc1CNC(=O)C1CCC(CNS(=O)(=O)c2cccs2)CC1 (stereo unspecified)	u	-9%
Cc1cn([C@H]2C[C@H](O)[C@@H](/C=C/C(=O)NCCN3CCOCC3)O2)c(=O)[nH]c1=O	14%	3%
Cc1cc(C)cc(N2C(=O)C3CC=CCC3C2=O)c1 (stereo unspecified)	-14%	-8%
Cc1cccc(-n2c(=O)c3c(c4cc(C)ccc4n3C)n(Cc3ccccc3F)c2=O)c1	-9%	-2%
COc1ccc(CNC(=O)CN(Cc2ccco2)C(=O)CNS(=O)(=O)c2ccccc2)cc1	-12%	-10%
COCCn1c(C)cc(O)c(C(c2ccccc2)N2CCN(c3ccccc3)CC2)c1=O (stereo unspecified)	i	-11%
CCOC(=O)c1c(C)nc2sc3c(=O)n(-c4ccc(C(C)=O)cc4)nnc3c2c1-c1ccc(Cl)cc1	x	-2%
COc1ccccc1C(=O)N[C@@H]1c2ccccc2C2(CCN(Cc3cnn(C)c3C)CC2)[C@H]1O	-21%	-4%
Cc1cccc(NC(=O)Cn2c(=O)ccc3cc(S(=O)(=O)N4CCCC4)ccc32)c1C	3%	-1%
Cc1ccccc1CCN1CCCC(CN(C)C(=O)C(=O)c2ccco2)C1 (stereo unspecified)	-15%	-16%
CCOc1ccc(C2Sc3ccccc3NC3=C2C(=O)OC3)cc1 (stereo unspecified)	i	-21%
COc1ccccc1C(=O)Nc1nnc(SCc2cc(=O)c3cc(Cl)ccc3[nH]2)s1	-2%	-16%
O=P(O)(c1ccc(Cl)cc1)c1ccc(Cl)cc1	x	-8%
COc1cc(C)c(Br)cc1S(=O)(=O)NCc1ccncc1	-23%	-29%
CC(C)=CCOc1ccc2c(C)c(CC(=O)N3C[C@H]4C[C@@H](C3)c3cccc(=O)n3C4)c(=O)oc2c1C	-13%	-3%
COc1ccc(NC(=O)c2c(Cl)n(C)c3ccccc23)cc1	x	u
Cc1ccc(Cn2c(NCCCn3ccnc3)nc3c2c(=O)n(C)c(=O)n3C)cc1	i	-8%
COc1ccc(Cl)cc1N(CC(=O)NCCSCc1ccccc1)S(C)(=O)=O	-8%	-2%
CCOc1ccc(NC(=O)CN(C)CC(=O)NC(C)c2ccccc2)cc1OCC (stereo unspecified)	-11%	-4%
(listing goes on)
SMILES	Vaccinia mCherry	VACV Venus inh
Cc1nn(C(C)C(=O)N/N=C/c2ccc(N(C)C)cc2)c(C)c1[N+](=O)[O-] (stereo unspecified)	-2%	-17%
O=C(Nc1ccc2c(c1)oc1ccccc12)c1ccc(Br)o1	x	u
CNC(=O)c1ccc(-c2ccc(F)cc2)s1	x	-29%
Cc1ccc(/C(C#N)=C\c2ccc(N3CCOCC3)o2)cc1	i	1%
C[C@H](NC(=O)[C@@H]1CCCN1C(=O)[C@@H]1CCCN1C(=O)c1ccccc1)c1ccccc1	-5%	-1%
N#Cc1c(NC(=O)CSc2nnc(-c3ccccc3O)n2-c2ccccc2)sc2c1CCCC2	x	-22%
CCN(C(=O)CCCCC(=O)N(CC)c1ccccc1)c1ccccc1	-16%	11%
Cc1ccc(OCC(=O)Nc2ccc3nc(SCC(=O)N4CCCC4)sc3c2)cc1C	-6%	-10%
COCCN1C(=O)c2oc3ccccc3c(=O)c2C1c1ccc(C(=O)OC)cc1 (stereo unspecified)	-21%	-11%
CCc1ccccc1NC(=O)c1nnn(CC(=O)Nc2c(C)cc(C)cc2C)c1N	2%	9%
COc1ccc(OC)c(C2SCCN2S(=O)(=O)c2cccc(C(F)(F)F)c2)c1 (stereo unspecified)	-16%	-10%
O=C(/C=C/c1ccccc1)N1CCN(Cc2cc(=O)n3nc(-c4ccccc4)sc3n2)CC1	-21%	-3%

By substructure: the entries above containing an aryl methoxy group.
SMILES	Vaccinia mCherry	VACV Venus inh
COc1ccc(NC(=O)C2=CC(c3ccc(OC)c(OC)c3)=NS(=O)(=O)N2C)cc1	-10%	u
COc1ccc(C(=O)NC(c2ccc(Cl)cc2)c2cc(Cl)c3cccnc3c2O)cc1 (stereo unspecified)	10µM*	u
COc1ccc(/C=C/CN2CCCC(CCC(=O)NCc3ccc(F)c(F)c3)C2)cc1 (stereo unspecified)	-18%	-16%
COc1ccccc1Cc1c(-c2cccc(Cl)c2)nc2ccc(C)cn12	12%	-10%
COc1ccc(NC(=O)Cn2c(=O)n(Cc3ccc(C(=O)NCc4ccccc4Cl)cc3)c(=O)c3ccccc32)cc1	-5%	1%
CNc1ncnc2ccc(-c3ccccc3OC)cc12	-6%	-17%
COc1ccc(CNC(=O)CCc2c(C)c3cc4c(C)c(C)oc4cc3oc2=O)cc1	u	-27%
COc1ccc(NC(=O)c2cc(C3CCCCN3C(=O)CCc3ccccc3)on2)c(C)c1 (stereo unspecified)	u	-19%
COc1ccc(-c2nn3c(=O)cc(CN4CCN(C(=O)Nc5cc(C)ccc5C)CC4)nc3s2)cc1	-21%	-18%
COc1ccccc1CNC(=O)C1CCC(CNS(=O)(=O)c2cccs2)CC1 (stereo unspecified)	u	-9%
COc1ccc(CNC(=O)CN(Cc2ccco2)C(=O)CNS(=O)(=O)c2ccccc2)cc1	-12%	-10%
COc1ccccc1C(=O)N[C@@H]1c2ccccc2C2(CCN(Cc3cnn(C)c3C)CC2)[C@H]1O	-21%	-4%
COc1ccccc1C(=O)Nc1nnc(SCc2cc(=O)c3cc(Cl)ccc3[nH]2)s1	-2%	-16%
COc1cc(C)c(Br)cc1S(=O)(=O)NCc1ccncc1	-23%	-29%
COc1ccc(NC(=O)c2c(Cl)n(C)c3ccccc23)cc1	x	u
COc1ccc(Cl)cc1N(CC(=O)NCCSCc1ccccc1)S(C)(=O)=O	-8%	-2%
COc1ccc(OC)c(C2SCCN2S(=O)(=O)c2cccc(C(F)(F)F)c2)c1 (stereo unspecified)	-16%	-10%

Assay outcomes: PubChem BioAssay, National Center for Advancing Translational Sciences (NCATS)
